Screening results (PubChem BioAssay)
CtBP-E1A inh: blocks the CtBP interaction with E1A | AlphaScreen GST-E1A/His-CtBP binding, 1536-well; hits give low values; control for the full effect not named in the record | activity change, % (test concentration not listed) | actives 0.49% (n = 340,000); in the data active means activity change below about -65%; inconclusive means about -30% to -65%; inactive means above about -30%; further: on the % scale 0 is the no-effect control and ±100 the full control effect; compound concentration not given in the record
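Steps: dispense buffer (Tris pH 8.0, NaCl 300 mM, TCEP 1 mM, BSA, Tween 20); add 5X protein mix (GST-E1A, His-CtBP, 125 nM each); pin 23 nL compound; 2 h at 37 °C, dark; add 5X beads (50 ug/mL); 1 h; read.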
ClpP mod: qHTS Assay for Activators of ClpP. ATP-dependent Clp protease proteolytic subunit (Bacillus subtilis (strain 168)), P80244. purified B. subtilis ClpP, FRET peptide cleavage, 20 min. Potency, µM (series often up to 57.5 µM), inactives show top-dose activity change, negative = active. actives 1.9% (n = 340,000); active = well fitted falling curve with a large enough effect; inconclusive = small, poorly fitted or top-dose-only effect; inactive = no such curve, though single readings can be large or run the other way; further: potency means the concentration at half of the fitted maximal effect; the source files actives as falling curves though it sought activators and does not explain the sign; nearly all actives have a fitted effect of over 65% in size; many hits overshoot -100%
Target sequence (P80244 whole entry, looked up): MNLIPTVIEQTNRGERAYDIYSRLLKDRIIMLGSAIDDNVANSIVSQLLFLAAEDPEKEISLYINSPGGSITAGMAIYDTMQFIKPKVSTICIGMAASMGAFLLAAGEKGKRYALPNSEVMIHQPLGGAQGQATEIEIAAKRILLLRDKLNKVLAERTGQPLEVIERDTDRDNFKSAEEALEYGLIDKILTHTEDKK
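Buffer: 100 mM Tris/HCl pH8, 100 mM KCl, 0.05% low protease BSA, 2.5% glycerol, 0.01% Tween-20. ClpP 10 microg/mL final; 20 min RT; delta FRET normalized to ADEP and DMSO controls.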
* = called active by the depositor; ? = inconclusive.

SMILES	CtBP-E1A inh	ClpP mod
CC1(C)OC(=O)C2=C(C[C@@H](C3CCCC3)O[C@@H]2c2ccc(Cl)cc2)O1	0	0.6%
CC(C)NC(=O)C1(C)CCN1C(=O)C(c1ccccc1)c1ccccc1 (stereo unspecified)	6	-0.6%
CC1(C(=O)NS(=O)(=O)c2ccccc2)CCN1C(=O)Cc1cccs1 (stereo unspecified)	0	-1.9%
CCc1nc2ccc(C(=O)NCc3ccc(OC)cc3)cn2c1N(CC)Cc1cccc(Br)c1	-23	-27%
CCCCC1Cc2[nH]c(=S)[nH]c(=O)c2C(C(C)C)O1 (stereo unspecified)	-21	-1.1%
COc1ccccc1Cn1c(C)c(C(=O)NCc2ccco2)sc1=O	-4	2.6%
Nc1ccccc1C(=O)NN=Cc1cccc([N+](=O)[O-])c1	18	0.9%
Cc1ccccc1NC(=O)Nc1nc(C(N)c2ccccc2)cs1 (stereo unspecified)	?	-3.0%
CCCCC[C@H](C)N1C[C@@H](COCc2ccccc2)Oc2cc(N3CCC[C@@H]3CO)ccc2S1(=O)=O	1	-18%
O=C(Nc1ccc2c(c1)OCCO2)C(C1CC1)n1c(=O)c(-c2ccco2)nc2ccccc21 (stereo unspecified)	-7	-28%
O=C(Nc1nnc([C@H]2C[C@H](O)[C@@H](CO)O2)s1)Nc1ccccc1Oc1ccccc1	0	-0.5%
CCOc1ccc(CCN2C(=O)C(=O)N([C@@H](Cc3ccccc3)CN3CCC[C@H]3CN3C(=O)C(=O)NC[C@@H]3Cc3ccccc3)C[C@@H]2Cc2ccc(O)cc2)cc1	-25	-2.4%
COc1ccc(C(N)c2csc(Nc3ccc(C(=O)c4ccccc4)cc3)n2)cc1 (stereo unspecified)	17	-5.9%
Cc1noc(C)c1C(=O)N1CCC1(C)C(=O)NS(=O)(=O)c1ccc(F)cc1F (stereo unspecified)	5	1.4%
O=C(NC1CCCCC1)C(c1cccc2ccccc12)n1c(=O)c(-c2cc3ccccc3[nH]2)nc2ccccc21 (stereo unspecified)	30	41%
CCOC(=O)C1=CCN(S(=O)(=O)c2cccc(Cl)c2)C1c1ccc(F)cc1 (stereo unspecified)	10	2.5%
COc1ccc(C(O)c2nc(-c3cc(F)cc(F)c3)cs2)cc1 (stereo unspecified)	17	-1.8%
CN(C)c1ccc(CC(=O)N2CCCC(c3cc(C(=O)Nc4ccccc4)no3)C2)cc1 (stereo unspecified)	-13	-5.3%
COc1ccc(S(=O)(=O)NC(=O)C2(C)CCN2C(=O)Cc2ccccc2)cc1OC (stereo unspecified)	3	-2.0%
COc1ccc(-n2nnnc2C(CCc2ccccc2)N2CCN(C/C=C/c3ccccc3)CC2)cc1 (stereo unspecified)	-25	-5.2%
O=C(NC(c1ccc(-c2ccccc2)cc1)c1cnccn1)C1CCN(CCOc2ccc(Cl)cc2Cl)CC1 (stereo unspecified)	-4	-2.8%
Cc1cc(C)cc(CC(=O)N2CCC2(C)C(=O)NS(=O)(=O)c2ccc(C#N)cc2)c1 (stereo unspecified)	8	-2.5%
Cc1cc(Br)cn2c(Cc3ccccc3)c(-c3ccccc3)nc12	4	-3.4%
COCCNc1nc(NCCOc2ccccc2Cl)c2sccc2n1	-7	-11%
Cc1ccc(-c2nc3ccccc3n2C(C)C(=O)NC(C)(C)C)cc1 (stereo unspecified)	-3	-29%
CC1(C(=O)Nc2cnc3ccccc3c2)CCN1C(=O)C/C=C/c1ccccc1 (stereo unspecified)	-4	-3.5%
CN(C)c1ncnc2c1ncn2[C@H]1CN(Cc2ccc3c(c2)OCO3)C[C@@H](CO)O1	22	1.0%
CCOC1=C2CN(S(=O)(=O)c3ccc(C)cc3)[C@H](c3cccc4ccccc34)C[C@H]2[C@H]2C(=O)N(c3ccccc3)C(=O)[C@H]2C1	-2	-3.4%
CN(C)C(=O)c1cccc(-c2cc(NC=O)c3ncc(-c4ccc(F)cc4)n3c2)c1	?	?
COc1ccc(-c2ccc(C(=O)NCc3ccco3)c3occc23)c(C)c1	-24	4.2%
CCOc1ccc(CCN2C(=S)N([C@@H](Cc3ccc(O)cc3)CN3CCC[C@@H]3CN3C(=S)NC[C@@H]3Cc3ccccc3)C[C@@H]2CC(C)C)cc1	-10	-0.8%
CCNC(=O)C1CCCN(C(=O)c2ccc(OC)cc2)CC1 (stereo unspecified)	-5	-3.2%
Cc1ccccc1-c1cc2c(c3c1ccn3C)C1CCC2C1 (stereo unspecified)	-16	?
COc1ccc(CN2CCC2(C)C(=O)Nc2ccc(OC)c(OC)c2)cc1 (stereo unspecified)	3	-1.7%
CN(CCc1ccccc1)C(C(=O)c1ccc2c(c1)OCO2)c1nnnn1-c1ccccc1NC(=O)OC(C)(C)C (stereo unspecified)	-14	-7.1%
CN(C)CCCNc1nc2cc(-c3ccccc3)sc2c(=O)n1C	-14	5.0%
CCc1nc2ccc(C(=O)NCCCn3ccnc3)cn2c1N(C)C(=O)C1CCCCC1	5	-3.5%
CCCc1nc2cc(C)c(Br)c(C)n2c1Cc1ccccc1OC	-1	-5.7%
COc1ccc(-c2csc(C(O)c3cccc(Cl)c3)n2)cn1 (stereo unspecified)	3	-0.1%
CC(=O)NC(c1ccc(F)c(F)c1)c1nc(-c2cnn(C)c2)cs1 (stereo unspecified)	6	0.9%
CC1(C(=O)NCc2ccccc2)CSCC(=O)N1Cc1ccco1 (stereo unspecified)	2	1.2%
CC1ON=C(c2ccccn2)N(Cc2ccc3c(c2)OCO3)C1=O (stereo unspecified)	3	-0.9%
CC(=NNC1=NCCN1)c1cnn(C2=NCCN2)c1C	5	-0.4%
Cn1c(=O)c2cc(NC(=S)NCc3ccccc3F)ccc2n1C	3	5.0%
Cc1ccc(S(=O)(=O)N2C[C@H]3[C@H]4C(=O)N(C5CCCCC5)C(=O)[C@H]4CC(=O)[C@H]3[C@@H]2c2ccccc2F)cc1	-21	-5.7%
CCc1nc2c(OCc3ccc(Cl)cc3)cccn2c1N(C=O)Cc1ccccc1	-9	0.3%
CC1(C(=O)NS(=O)(=O)c2ccccc2)CCN1C(=O)C1CCCCC1 (stereo unspecified)	3	1.3%
CCOC(=O)[C@]12CCCC=C1N(Cc1ccccc1)C(=O)[C@H](CC(=O)NCCCN1CCCC1=O)C2	4	-0.5%
CCCCC[C@H](C)N1C[C@H](COCc2ccccc2)Oc2cc(N3CCC[C@H]3COC)ccc2S1(=O)=O	-3	-9.6%
COc1ccc(NC(=O)C2Cc3c(-c4cccc(F)c4)ccnc3O2)cc1OC (stereo unspecified)	-3	-1.0%
CCCN1C(=O)CC(c2ccc(OC)c(OC)c2)C1=O (stereo unspecified)	8	2.1%
CC(C)(C)c1ccc(S(=O)(=O)NC(=O)C2(C)CCN2C(=O)Cc2cccs2)cc1 (stereo unspecified)	-6	0.9%
c1cnc2c(-c3ccc4nccn4c3)cccc2c1	-2	-2.2%
COc1ccc(C(C(=O)Nc2ccc(F)cc2)N2CCN(c3ccncc3)CC2)cc1 (stereo unspecified)	-16	-2.4%
COc1cc(-c2c(CCO)sc3ccccc23)cc(OC)c1OC	2	-3.0%
CCCCCc1c(-c2ccc(F)cc2F)ncn1CCc1ccccc1OC	-6	-1.3%
CCc1ccc2c(c1)NC(=O)C2(C)Cc1ccccc1Cl (stereo unspecified)	1	-2.5%
C#CCn1c2ccccc2c(=O)n1C(C)CBr (stereo unspecified)	2	5.3%
COc1ccc(CN2C(=O)C(C)Nc3ncnc(N4CCc5ccccc5C4)c32)cc1 (stereo unspecified)	13	0.9%
C=CCC[C@@H](CCCCC)OC(=O)/C=C/[C@H](O)[C@@H](O)C[C@H](O)CC=C	-21	-2.8%

Arranged by molecular weight (smallest number first): some entries from above.
SMILES	CtBP-E1A inh	ClpP mod
CCCN1C(=O)CC(c2ccc(OC)c(OC)c2)C1=O (stereo unspecified)	8	2.1%
CCCCC1Cc2[nH]c(=S)[nH]c(=O)c2C(C(C)C)O1 (stereo unspecified)	-21	-1.1%
Nc1ccccc1C(=O)NN=Cc1cccc([N+](=O)[O-])c1	18	0.9%
COc1ccc(-c2csc(C(O)c3cccc(Cl)c3)n2)cn1 (stereo unspecified)	3	-0.1%
CC(=O)NC(c1ccc(F)c(F)c1)c1nc(-c2cnn(C)c2)cs1 (stereo unspecified)	6	0.9%
C=CCC[C@@H](CCCCC)OC(=O)/C=C/[C@H](O)[C@@H](O)C[C@H](O)CC=C	-21	-2.8%
COc1ccccc1Cn1c(C)c(C(=O)NCc2ccco2)sc1=O	-4	2.6%
CN(C)c1ncnc2c1ncn2[C@H]1CN(Cc2ccc3c(c2)OCO3)C[C@@H](CO)O1	22	1.0%
CCc1nc2c(OCc3ccc(Cl)cc3)cccn2c1N(C=O)Cc1ccccc1	-9	0.3%
O=C(Nc1nnc([C@H]2C[C@H](O)[C@@H](CO)O2)s1)Nc1ccccc1Oc1ccccc1	0	-0.5%
COc1ccc(S(=O)(=O)NC(=O)C2(C)CCN2C(=O)Cc2ccccc2)cc1OC (stereo unspecified)	3	-2.0%
CCCCC[C@H](C)N1C[C@@H](COCc2ccccc2)Oc2cc(N3CCC[C@@H]3CO)ccc2S1(=O)=O	1	-18%

Next section:
SMILES	CtBP-E1A inh	ClpP mod
O=C(CNC(=O)OCc1ccccc1)NCC(=O)NC(Cc1c[nH]c2ccccc12)C(=O)O (stereo unspecified)	11	-0.7%
CCc1nc2ccc(C(=O)NC3CCN(Cc4ccccc4)CC3)cn2c1N(CC)CCOC	4	-1.6%
c1ccc2c(-c3cccc4nccn34)cncc2c1	-1	-19%
Cc1cccc(C)c1-n1nnnc1C1c2ccccc2C(=O)N1CCCn1ccnc1 (stereo unspecified)	7	-2.2%
Cc1cccc(C)c1N1C(=O)c2ccccc2NC(=O)C1C(=O)NCC(C)C (stereo unspecified)	0	-2.0%
CCOC(=O)C1CCCN(C(=O)c2cccnc2Oc2ccccc2)CC1 (stereo unspecified)	8	0.1%
OC[C@@H]1CN(Cc2ccccc2)C[C@H](n2ccc3c(N4CCCC4)ncnc32)O1	5	1.5%
COc1ccc(-c2oc3c(c2C(=O)OCCO)C(OCCO)CCC3)cc1 (stereo unspecified)	9	4.8%
CCc1nc2ccc(C(=O)NCCC(C)C)cn2c1N(CC)CCOC	4	-2.6%
OC[C@@H]1CN(CCc2ccccc2)C[C@H](n2cnc3c(N4CCOCC4)ncnc32)O1	25	0.0%
CC(=O)NC(c1ccccc1)c1nc(-c2cnc3ccccc3c2)cs1 (stereo unspecified)	-4	?
CC1(C(=O)NCc2ccccc2)CN(S(C)(=O)=O)CC(=O)N1CCc1ccccc1F (stereo unspecified)	2	-0.9%
Cc1cccc(C)c1NC(=O)C(CCc1ccccc1)n1c(=O)c(-c2ccccc2)nc2ccccc21 (stereo unspecified)	1	-13%
CC(C)(C)NC(=O)C(c1ccc(C#N)cc1)n1c(=O)c(-c2cc3ccccc3[nH]2)nc2ccccc21 (stereo unspecified)	20	-15%
CC(=O)Nc1cccc(-c2ccnc3c2CC(C(=O)Nc2cccnc2)O3)c1 (stereo unspecified)	20	-14%
Nc1nc(N)c(N=O)c(Nc2ccc(Cl)c(Cl)c2)n1	-10	-0.6%
COc1ccc2c(CN3CCOCC3)cc(=O)oc2c1	-13	?
C[C@H](O)[C@@H]1CN2CCc3c([nH]c4ccccc34)[C@@H]2C[C@@H]1N(C)C(=O)Nc1cccc2ccccc12	-14	5.2%
COC(=O)[C@@]1(Cc2ccc(F)cc2)[C@H]2c3cc(C(=O)N(C)C)n(CCCNc4ncc(C(F)(F)F)cc4Cl)c3C[C@H]2CN1C(=O)c1ccccc1	-1	-5.9%
C#CCNC(=O)C[C@@H]1C[C@@]2(C(=O)OCC)CCCC=C2N(Cc2ccc(Cl)cc2Cl)C1=O	-5	-0.3%
CC(O)(c1cccc(F)c1)c1nc(-c2cc3ccccc3o2)cs1 (stereo unspecified)	7	-0.4%
CC(=O)Nc1cc(-c2ccc(N3CCN(C)CC3)cc2)cn2c(-c3ccc(S(C)(=O)=O)cc3)cnc12	-3	-24%
CCCCN(CCCC)Cc1cc(=O)oc2cc(OC)ccc12	-14	5.0%
COc1ccc(C(C)(NC(C)=O)c2nc(-c3cccnc3)cs2)cc1 (stereo unspecified)	8	0.4%
COc1cccc(CNc2nc3cc(-c4ccccc4)sc3c(=O)n2C)c1	0	?
Cc1cccc(C)c1-n1nnnc1C1c2ccccc2C(=O)N1CCc1ccccc1F (stereo unspecified)	4	-1.1%
COc1ccc(-c2ccc(C(=O)Nc3ccc4c(c3)OCO4)c3occc23)c(C)c1	-29	32µM*
Cc1cccc(C)c1NC(=O)C1(C)CN(S(C)(=O)=O)CC(=O)N1CCCn1ccnc1 (stereo unspecified)	0	-0.2%
O=C(NC1CCCC1)C(c1ccccc1)n1c(CSCCOc2ccccc2)nc2ccccc21 (stereo unspecified)	-1	-2.7%
CCCCNC(=O)c1ccc2nc(CC)c(N(CC)CCN(C)C)n2c1	0	-4.2%

These rows are one share of the data; rates above refer to the full screens.
